# Screens: PubChem, National Center for Advancing Translational Sciences (NCATS)
# StopGo reporter: lowers the luciferase signal of an FMDV 2A StopGo reporter; human cells with a luciferase reporter of 2A StopGo recoding; control for the full effect not named in the record; Potency, µM (highest dose often 57.9 µM), inactives show at the top dose signal change, negative = less light; 410,000 compounds, 1.2% hits; AID 1159524; active = well fitted falling curve with a large enough effect; inconclusive = small, poorly fitted or top-dose-only effect; inactive = no such curve, though single readings can be large or run the other way; tested in HEK293T cells; also: % is scaled to controls: 0 for no effect and ±100 for the full control effect; nearly all actives have a fitted effect of over 45% in size; luciferase light after 4 h
# RE007 growth inh: less growth of the S. pombe RE007 Vpr strain. S. pombe RE007 Vpr strain, BacTiter-Glo ATP luminescence, 24 h; control for the full effect not named in the record. Potency, µM (titrated, usually from 92.2 µM), for the others: at the highest dose activity change, negative = less growth. 360,000 compounds, 0.21% hits. AID 651644; active = well fitted falling curve with a large enough effect; inconclusive = small, poorly fitted or top-dose-only effect; inactive = no such curve, though single readings can be large or run the other way;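 also: % is scaled to controls: 0 for no effect and ±100 for the full control effect; nearly all actives have a fitted effect of over 50% in size; the assay follows cell death caused by Vpr and the record does not say whether a fall means rescue or toxicity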
#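 Fission yeast strain RE007, carrying one chromosomally integrated HIV-1 vpr copy, was seeded at OD 0.01 in PMG+AL medium with 23 nL pinned compound. After 24 h at 30 °C and 99% humidity, viability was read by BacTiter-Glo luminescence.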
# SARS PLP yeast: SARS-CoV PLP inhibition in yeast | S. cerevisiae expressing SARS-CoV PLpro, growth rescue; control for the full effect not named in the record | Potency, µM (titrated, usually from 32.9 µM), without a hit: at the highest dose activity, positive = growth rescue | 330,000 compounds, 0.19% hits | AID 485353; active means well fitted rising curve with a large enough effect; inconclusive means small, poorly fitted or top-dose-only effect; inactive means no such curve, though single readings can be large or run the other way; also: 0% is about no effect; nearly all actives have a fitted effect of over 55% in size; growth read by luminescence after 48 h
# Numbers without * were called inactive; ? = inconclusive; [ ] = remark or other dose. Potency is read from the fitted curve at half-maximal effect.
SMILES,StopGo reporter,RE007 growth inh,SARS PLP yeast
CC(=O)c1cccc(NC(=O)CSc2nnc(-c3ccncc3)o2)c1,-2%,15%,0%
O=C(NCc1cc(C(F)(F)F)ccc1Cl)c1cccc2c1C(=O)c1ccc(N3CCC(Cc4ccccc4)CC3)cc1S2(=O)=O,-24%,-6%,8%
O=C(COC(=O)C12CC3CC(CC(Br)(C3)C1)C2)Nc1c(F)cccc1F,-17%,14%,-1%
COc1ccc2nc(SCC(=O)NC3CCCCC3C)[nH]c2c1 (stereo not drawn),-29%,-8%,2%
c1cn2c(NC3CCCCC3)c(-c3ccc(SC4CCCCC4)cc3)nc2cn1,-31%,1%,-1%
Cc1cc(F)ccc1S(=O)(=O)Nc1ccccc1C(=O)N1CCCC1,-5%,3%,1%
O=C(NCc1ccccc1Br)c1cccc2c1C(=O)c1ccc(-c3ccc(OC(F)(F)F)cc3)cc1S2(=O)=O,-12%,0%,5%
O=C(CC1SC(N2CCCCC2)=NC1=O)Nc1ccc(C(=O)O)cc1 (stereo not drawn),-15%,3%,3%
O=S(=O)(c1ccc2ccccc2c1)N1CCN=C1SCc1cccnc1,-6%,-7%,-6%
OCC[C@H]1C[C@@H](O)[C@H](O)[C@]2(CCCc3ccccc3O2)O1,-8%,-11%,5%
C[C@H](CO)N1C[C@H](C)[C@@H](CN(C)C(=O)NC2CCCCC2)Oc2c(NC(=O)Nc3ccccc3)cccc2C1=O,25%,-13%,5%
CCOc1ccc(/C=N/Nc2ccccn2)cc1,19%,-29%,-6%
CN(C)c1cccc(C(=O)NNC(=O)C23CC4CC(CC(C4)C2)C3)c1,33%[activator],-4%,-8%
CC[C@]12c3[nH]c4ccccc4c3CCN1C(=O)C(CC(=O)NCc1ccco1)C[C@@H]2C(=O)N1CCN(C(=O)c2ccco2)CC1 (stereo partly drawn),-15%,-3%,0%
CCN(C[C@H]1N[C@@](C)(C(=O)OC)[C@H]2C(=O)N(Cc3ccccc3)C(=O)[C@@H]12)C(=O)NC(C)C,-17%,3%,-2%
CCCc1cc(=O)[nH]c(SCC(=O)Nc2sc(C(N)=O)c(C)c2C(=O)OCCOC)n1,0%,9%,1%
C[C@H](CO)N1C[C@H](C)[C@@H](CN(C)S(=O)(=O)c2ccc(F)cc2)Oc2c(NS(=O)(=O)c3ccc(F)cc3)cccc2C1=O,10%,-7%,3%
CCOC(=O)c1c(C)[nH]c(C)c1C(=O)COC(=O)c1cccnc1OCC,-4%,-19%,8%
COc1ccccc1-c1nnc(NC(=O)C(C)Sc2nncn2C)s1 (stereo not drawn),41%[activator],-12%,-4%
COc1ccc(C)cc1-n1c(SCC(=O)NC2CC2)nc2ccccc2c1=O,-19%,-8%,5%
CCc1ccc(CC(=S)N2CCOCC2)cc1,46%[activator],0%,-3%
CCN(C(=O)c1ccc(=O)[nH]c1)c1c(N)n(Cc2ccccc2)c(=O)[nH]c1=O,-7%,-1%,-2%
O=C(C[n+]1ccn(CCCNP2(=O)C=C(c3ccccc3)OC(c3ccccc3)=C2)c1)c1ccccc1,0%,8%,1%
Cc1cc(Cn2nc(C(=O)NCc3cccc(C(F)(F)F)c3)cc2-c2ccccc2)on1,-9%,0%,0%
Cc1cc(OCC(=O)Nc2ccccc2C)no1,-4%,1%,5%
SMILES,StopGo reporter,RE007 growth inh,SARS PLP yeast
O=C(NC1CCCC1)c1cccc2c1C(=O)c1ccc(Cl)cc1S2(=O)=O,-2%,10%,-4%
COCCCNC(=O)CCn1c(=O)c2ccccc2n(CC(=O)NCCC2=CCCCC2)c1=O,7%,-1%,0%
Cn1c(=O)c2c(ncn2CC(=O)NC[C@H]2O[C@@H](n3cnc4c(N)ncnc43)[C@H](O)[C@@H]2O)n(C)c1=O,-21%,-9%,2%
COc1cccc(NC(=O)COC(=O)/C=C/c2ccco2)c1,-5%,1%,0%
O=C(OCC(=O)N1CCN(S(=O)(=O)c2ccccc2)CC1)C1CCC1,4%,13%,-3%
O=C(CSc1nnc(-c2ccc3c(c2)OCO3)o1)Nc1c(F)cccc1F,28%,-3%,1%
CC[C@]1(C(=O)OC)[C@H]2C(=O)N(Cc3ccccc3)C(=O)[C@H]2[C@H]2CN=C(SCc3ccc(C)cc3)N21,?,-10%,1%
COc1cc2cc(CCOC(=O)c3ccco3)oc(=O)c2cc1OC,12%,1%,-3%
CCSc1ccc([C@@H]2[C@@H]3C(=O)N(C)C(=O)[C@@H]3[C@]3(C(=O)OC)CCCCN23)cc1,0%,1%,8%
O=C(CSc1nnc(-c2ccc(Cl)cc2)n1-c1ccccc1)N/N=C/c1ccccc1C(=O)O,1%,2%,-1%
O=C(CCc1ccccc1)N[C@@H]1c2ccccc2CC[C@@H]1OCc1ccccc1,-8%,-1%,21%
COc1cccc(NC(=O)c2ccccc2NC(=O)c2ccncc2)c1,0%,6%,-2%
Nc1nc(N)nc(-c2cc([N+](=O)[O-])ccc2O)n1,28%,2%,-7%
CCCCN1C(=O)C(=O)N(CC(=O)Nc2ccc(C(N)=O)cc2)C1=O,-24%,8%,1%
O=C(N[C@@H](Cc1ccccc1)C(=O)OCc1ccccc1)c1ccco1,8%,5%,-19%
CC(=O)NCc1ccc(-c2csc(NC(=O)CCCc3nc4ccccc4c(=O)[nH]3)n2)cc1,-1%,-1%,-1%
COc1cc(OC)cc(-c2sc3ccc(OC)cc3c2-c2ccc(OCCN3CCCCC3)cc2)c1,-12%,-26%,-3%
C[C@@H]1CN([C@@H](C)CO)C(=O)Cc2cc(NC(=O)Nc3ccc(F)cc3)ccc2O[C@@H]1CN(C)Cc1ccc(Cl)c(Cl)c1,?,-1%,8%
O=C(Nc1ccccc1C(F)(F)F)C(O)(c1ccccc1)C1CCCCC1 (stereo not drawn),-24%,-16%,1%
Cc1ccc(S(=O)(=O)N2[C@@H](c3ccc(Br)cc3)C(C(=O)O)=C[C@H]2C(C)(C)C)cc1,6%,13%,-4%
Clc1ccc(-c2nc3ccccn3c2CN2CCCCC2)cc1,?,6%,5%
COc1ccc(S(=O)(=O)N2CCOCC2)cc1NC(=O)CN(C)CC(=O)Nc1cccc(F)c1,1%,2%,1%
CCC1CCc2sc(C(=O)NCC(c3ccc(OC)cc3)N3CCOCC3)cc2C1 (stereo not drawn),-18%,-8%,-4%
Cc1ccccc1-c1cc(C(=O)O)n(CC2CC(c3cccnc3)=NO2)n1 (stereo not drawn),-18%,-10%,8%
Cc1nnc(SCC2=C(C(=O)O)N3C(=O)C(NC(=O)Cn4nc(C(F)F)cc4C)C3SC2)s1 (stereo not drawn),2%,8%,1%

# Overlap with the part before: 2 entries, followed by the next part.
SMILES,StopGo reporter,RE007 growth inh,SARS PLP yeast
Cc1ccccc1-c1cc(C(=O)O)n(CC2CC(c3cccnc3)=NO2)n1 (stereo not drawn),-18%,-10%,8%
Cc1nnc(SCC2=C(C(=O)O)N3C(=O)C(NC(=O)Cn4nc(C(F)F)cc4C)C3SC2)s1 (stereo not drawn),2%,8%,1%
CCc1onc(C)c1C(=O)Nc1ccc2c(c1)OCO2,5%,2%,0%
COc1ccccc1CN(C)c1ccc(S(=O)(=O)N2CCN(C)CC2)cn1,0%,-20%,-12%
COc1ccc(CN(C)C(C)C(=O)Nc2ccc(S(=O)(=O)N3CCCCC3)cc2)cc1F (stereo not drawn),-10%,3%,-1%
N#CCC(=O)Nc1ccc(C(F)(F)F)cc1N1CCOCC1,14%,4%,-1%
O=C(COC(=O)C12CC3CC(CC(Cl)(C3)C1)C2)Nc1ccccc1,-3%,-6%,-3%
CC1CCN(C(=O)c2nc[nH]c2C(=O)N2CCc3ccccc3C2)CC1,-8%,2%,6%
CN(c1ccccc1)S(=O)(=O)c1ccc(C(=O)NCc2ccc(F)cc2)cc1,?,5%,-7%
CN(C(=O)c1cccc(NC(=O)C2CCCN(C(=O)OC(C)(C)C)C2)c1)C1CCCC1 (stereo not drawn),?,8%,-4%
O=C(NCc1ccccc1F)c1cccc(S(=O)(=O)N2CCCCCC2)c1,3%,-9%,1%
Nc1nnc(SCC(=O)OCC(=O)Nc2ccccc2F)s1,9%,6%,-1%
C[C@@H]1CN([C@@H](C)CO)C(=O)c2cc(NC(=O)Nc3ccccc3)ccc2O[C@H]1CN(C)C(=O)Nc1cccc2ccccc12,-19%,-10%,-6%
Cc1nnc(NC(=O)c2ccc(S(=O)(=O)N3CCCCC3)cc2)s1,-20%,3%,3%
CCc1cc2c(COC(=O)c3cc(S(=O)(=O)N4CCOCC4)ccc3F)cc(=O)oc2cc1O,?,6%,0%
C=C[C@@H]1c2cc(C)ccc2N(S(=O)(=O)c2ccc(C)cc2)[C@H](c2ccccc2C(F)(F)F)C1(C#N)C#N,0%,-1%,-1%
Brc1ccc(C[n+]2ccccc2)cc1,1%,-18%,-3%
C=C(CC[C@@H](O)C(C)(C)O)[C@H]1CC[C@]2(C)[C@@H]1CCC1[C@@]3(C)CC[C@H](O)C(C)(C)C3CC[C@]12C (stereo partly drawn),-5%,3%,7%
Cc1cn([C@@H](CCCCNC(=O)OC(C)(C)C)C(=O)NCCCCCCCCCCC(=O)N2CCN(C(=O)OC(C)(C)C)CC2)nn1,11µM*,-16%,0%
Cc1noc(C)c1NC(=O)N(C)C[C@H]1Oc2ccc(NS(=O)(=O)c3cccs3)cc2C(=O)N([C@H](C)CO)C[C@@H]1C,-21%,6%,2%
COc1ccc(C(=O)NCC(=O)N/N=C(C)\C=C\c2ccccc2)cc1OC,-17%,4%,-1%
CCOC(=O)[C@H]1[C@H]2COc3ccc(OC)cc3[C@@H]2N2C(=O)CN(CCc3c[nH]c4ccccc34)C(=O)[C@@]12C,-20%,4%,-8%
CCC(CC)C(=O)Nc1nnc(SCC(=O)NC(C)(C)C)s1,-12%,-1%,-5%
C[C@H]1CCC(=O)N(CCSc2ccc(Br)cc2)CC1,41%[activator],1%,4%
O=C(C1COc2ccccc2O1)N1CCCCC1 (stereo not drawn),2%,-16%,2%
CCCN(CC(=O)Nc1ccccc1OC)C(=O)C1=COCCO1,-9%,6%,-1%

# An excerpt of these results, with values under each structure:
# Every second line gives: StopGo reporter | RE007 growth inh | SARS PLP yeast
O=C(Nc1ccccc1C(F)(F)F)C(O)(c1ccccc1)C1CCCCC1 (stereo not drawn)
 : -24% | -16% | 1%
Cc1ccc(S(=O)(=O)N2[C@@H](c3ccc(Br)cc3)C(C(=O)O)=C[C@H]2C(C)(C)C)cc1
 : 6% | 13% | -4%
Clc1ccc(-c2nc3ccccn3c2CN2CCCCC2)cc1
 : ? | 6% | 5%
COc1ccc(S(=O)(=O)N2CCOCC2)cc1NC(=O)CN(C)CC(=O)Nc1cccc(F)c1
 : 1% | 2% | 1%
CCC1CCc2sc(C(=O)NCC(c3ccc(OC)cc3)N3CCOCC3)cc2C1 (stereo not drawn)
 : -18% | -8% | -4%
Cc1ccccc1-c1cc(C(=O)O)n(CC2CC(c3cccnc3)=NO2)n1 (stereo not drawn)
 : -18% | -10% | 8%
Cc1nnc(SCC2=C(C(=O)O)N3C(=O)C(NC(=O)Cn4nc(C(F)F)cc4C)C3SC2)s1 (stereo not drawn)
 : 2% | 8% | 1%
CCc1onc(C)c1C(=O)Nc1ccc2c(c1)OCO2
 : 5% | 2% | 0%
COc1ccccc1CN(C)c1ccc(S(=O)(=O)N2CCN(C)CC2)cn1
 : 0% | -20% | -12%
COc1ccc(CN(C)C(C)C(=O)Nc2ccc(S(=O)(=O)N3CCCCC3)cc2)cc1F (stereo not drawn)
 : -10% | 3% | -1%
N#CCC(=O)Nc1ccc(C(F)(F)F)cc1N1CCOCC1
 : 14% | 4% | -1%
O=C(COC(=O)C12CC3CC(CC(Cl)(C3)C1)C2)Nc1ccccc1
 : -3% | -6% | -3%
CC1CCN(C(=O)c2nc[nH]c2C(=O)N2CCc3ccccc3C2)CC1
 : -8% | 2% | 6%
CN(c1ccccc1)S(=O)(=O)c1ccc(C(=O)NCc2ccc(F)cc2)cc1
 : ? | 5% | -7%
CN(C(=O)c1cccc(NC(=O)C2CCCN(C(=O)OC(C)(C)C)C2)c1)C1CCCC1 (stereo not drawn)
 : ? | 8% | -4%
O=C(NCc1ccccc1F)c1cccc(S(=O)(=O)N2CCCCCC2)c1
 : 3% | -9% | 1%
Nc1nnc(SCC(=O)OCC(=O)Nc2ccccc2F)s1
 : 9% | 6% | -1%
C[C@@H]1CN([C@@H](C)CO)C(=O)c2cc(NC(=O)Nc3ccccc3)ccc2O[C@H]1CN(C)C(=O)Nc1cccc2ccccc12
 : -19% | -10% | -6%

# Some of the compounds tested; the hit share may differ from the screen's.
